Compound activity: PubChem, National Center for Advancing Translational Sciences (NCATS)
miR-21 FLuc = raises the signal of a miR-21 reporter | HeLa miR-21 FLuc reporter, luciferase, 48 h | Potency, µM (series often up to 38.3 µM), inactives show at the top dose reporter change, positive = more light | 340,000 tested, under 10 active | AID 2288; active = well fitted rising curve with a large enough effect; inconclusive = small, poorly fitted or top-dose-only effect; inactive = no such curve, though single readings can be large or run the other way;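 further: % of control where 0% means no effect; miR-21 action dims this reporter so a rising signal means less miR-21 action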
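Luminescence from a firefly luciferase reporter carrying a miR-21 binding site downstream, stably expressed under a CMV promoter in HeLa cells that make miR-21 endogenously, reports miRNA modulation after 48 h compound exposure up to approximately 40uM final.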
Rango complex inh = inhibitors of Rango-importin beta complex formation; AID 540263; Potency, µM (highest dose often 92.2 µM), inactives show at the top dose inhibition of complex formation; Q14974; Rango CFP/YFP FRET sensor + importin beta, 45 min; 340,000 tested, 0.031% active; active = rising FRET ratio curve, often small or poorly fitted; inconclusive = mostly compound fluorescence or quenching in the first reads; inactive = flat curves in all reads;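 further: potency means the concentration at half of the fitted maximal effect; 0% = DMSO wells and 100% = buffer wells lacking importin beta; nearly all actives have a fitted effect of over 15% in size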
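FRET biosensor Rango (snurportin 1 IBB between N-terminal EYFP and C-terminal Cerulean), 50 nM in PBS/1 mM DTT/0.02% Tween-20/0.1% BSA, preincubated 5 min RT with compound; 0.125 microM importin beta added, 45 min RT, CFP/YFP FRET ratio read.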
GLA inh pH 4.5 = inhibitors of human alpha-galactosidase A at pH 4.5; P06280; purified enzyme, 4-MU-alpha-Gal fluorescence, pH 4.5; activity change, negative = inhibition, % at 105 µM; 230,000 tested, under 10 active; AID 1467; inconclusive = small, poorly fitted or top-dose-only inhibition, or a rising curve; inactive = flat fitted curve, though single readings scatter; no compound was filed as active;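 further: 0% = full activity with enzyme and -100% = basal without enzyme; dose as in the result columns while the protocol names 77 µM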
Target sequence (P06280 whole entry, looked up): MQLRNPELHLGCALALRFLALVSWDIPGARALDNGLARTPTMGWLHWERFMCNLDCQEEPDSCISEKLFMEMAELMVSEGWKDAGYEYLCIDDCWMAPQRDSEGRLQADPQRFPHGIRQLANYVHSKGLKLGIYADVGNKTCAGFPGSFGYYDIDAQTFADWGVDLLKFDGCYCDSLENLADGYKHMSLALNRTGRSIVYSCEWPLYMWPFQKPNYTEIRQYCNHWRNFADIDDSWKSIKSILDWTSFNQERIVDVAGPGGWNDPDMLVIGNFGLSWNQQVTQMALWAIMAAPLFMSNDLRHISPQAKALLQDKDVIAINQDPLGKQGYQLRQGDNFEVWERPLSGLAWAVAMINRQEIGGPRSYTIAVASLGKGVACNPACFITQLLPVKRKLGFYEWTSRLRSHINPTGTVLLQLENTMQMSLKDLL
Rango dissoc inh = inhibitors of RanGTP-induced Rango-importin beta complex dissociation | Biochemical FRET Rango-importin beta, RanGTP-induced dissociation | 340,000 tested, 0.071% active | Potency, µM (highest dose often 46.1 µM), for the others: at the top dose activity change, negative = inhibition | AID 540253; active means falling FRET ratio curve, often poorly fitted, with flat reads before Ran was added; inconclusive means other falling curves, or compound fluorescence or quenching; inactive means flat or rising ratio curve;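 further: potency means the concentration at half of the fitted maximal effect; % of control where 0% means no effect; nearly all actives have a fitted effect of over 45% in size; -100% = wells without RanGTP and RCC1; the record marks most hits as doubtful in a second field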
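Recombinant Rango FRET biosensor (EYFP–snurportin 1 IBB–cerulean CFP10) at 0.1 uM premixed with 0.25 uM importin beta in PBS, 1 mM DTT, 0.02% Tween-20, 0.1% BSA. Compound added 5 min; RanGTP-RCC1 (0.6 uM Ran, 2 mM GTP, 0.2 uM RCC1) then triggers release, read at 45 min.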
An asterisk follows results filed as active; ? = inconclusive; nt = not tested or not shown; & = joins results of further samples.

SMILES	miR-21 FLuc	Rango complex inh	GLA inh pH 4.5	Rango dissoc inh
N#CC(c1ccc(Cl)cc1)(c1ncc(C(F)(F)F)cc1Cl)N1CCOCC1 (stereo not drawn)	-1%	-4.1%	-2	3%
O=[N+]([O-])c1cccc(OCCN2CCC(Cc3ccccc3)CC2)c1	-6%	-3.5%	nt	-9%
COC(=O)C1C(O)=C(C=NCC(C)N=CC2=C(O)C(C(=O)OC)C(C)(C)CC2=O)C(=O)CC1(C)C (stereo not drawn)	-3%	1.2%	-2	-1%
COC(=O)C1=CN(C)C=C(C(=O)OC)C1c1ccsc1	-1%	?	?	?
Cc1ccc(C(=O)NC(=S)Nc2ccccc2C(F)(F)F)cc1	-23%	4.5%	-16	-1%
O=C(c1ccc(Cl)cc1)N1CCN(c2ccnc3cc(Cl)ccc23)CC1	15%	0.5%	-6	3%
COc1cccc(-n2nnnc2SCC(=O)NC2CCCCC2)c1	-8%	-1.7%	nt	6%
COc1cccc(/C=C/C2=CC(C)(C)NC(=S)N2)c1	-3%	0.2%	7	4%
COc1ccc(-n2nnnc2-c2cccnc2)cc1	-1%	-0.3%	7	-8%
CCOCCCNC(=O)c1ccc(Cn2c(=O)[nH]c3ccsc3c2=O)cc1	-1%	-2.5%	1	-2%
COc1ccccc1NS(=O)(=O)c1cccc(C(=O)NCC(C)(C)N2CCOCC2)c1	-3%	7.0%	nt	1%
Cc1ccccc1NC(=O)OCCN1CCN(Cc2ccccc2)CCC1=O	-3%	4.3%	-11&4	-9%
CCN(C(=O)COC(=O)c1ccccc1Cc1ccccc1)C1CCS(=O)(=O)C1 (stereo not drawn)	nt	-2.1%	nt	-1%
COCCNC(=O)CN(C(=O)CCC(=O)Nc1ccccn1)c1ccccc1F	5%	-3.4%	9	-13%
O=C(Nc1nc(-c2ccc(S(=O)(=O)N3CCCC3)cc2)cs1)c1cccs1	17%	-0.4%	-8	8%
N#Cc1c(N)nc2c3c(sc(=N)c2c1N)NC(=O)CC3c1c(F)cccc1Cl (stereo not drawn)	-16%	?	-5	?
Cc1[nH]c2ccccc2c1/C=C/C(=O)c1ccncc1	4%	?	-18	?
CS(=O)(=O)Nc1cccc(C2=NN(S(=O)(=O)c3ccccc3)C(c3ccco3)C2)c1 (stereo not drawn)	-8%	0.3%	-2	-18%
CNC(=O)NNC(=O)c1nc(-c2ccccc2)c(C)o1	-2%	-4.0%	-3	0%
CS(=O)(=O)c1ccc(S(=O)(=O)N2CCC(CO)(CCCc3ccccc3)CC2)cc1	13%	-2.2%	nt	11%
Cc1cccc(-c2nnc(SCC(=O)Nc3ncccn3)n2C)c1	2%	-0.3%	6	26%
COc1ccc2nc(NC(=O)C3COc4ccccc4O3)sc2c1 (stereo not drawn)	-21%	1.8%	1	8%
Cc1ccc(C(=O)NCC(=O)Nc2ccncc2)s1	4%	0.9%	nt	-3%
COc1ccc(CCNC(=O)/C(=C/c2cccnc2)NC(=O)c2ccccc2)cc1OC	-8%	-0.1%	4	-12%
COC(=O)C1CCN(C(=O)COC(=O)CC(NC(N)=O)c2ccc(Cl)cc2)CC1 (stereo not drawn)	-3%	-4.3%	11	1%
COCCn1c(C)cc(C(=O)COC(=O)C23CC4CC(CC(O)(C4)C2)C3)c1C	-7%	0.8%	-2	14%
CCOc1cc(C(=O)OCC(=O)Nc2cccc(S(=O)(=O)NC3=NCCCCC3)c2)cc(OCC)c1OCC	nt	0.9%	nt	-7%
CN(C)c1nc2c(c(=O)[nH]c(=O)n2C)n1CCCc1ccccc1	-7%	-4.5%	nt	-9%
CCC(=O)Oc1ccc(C(=O)Nc2cccc(C(=O)NC(C)(C)C)c2)cc1	-14%	0.7%	-4	1%
O=C(NCc1nnnn1-c1ccc(F)c(F)c1)c1ccc2c(c1)OCO2	nt	0.6%	nt	2%
COc1ccc(CCC(C(O)C(F)(F)F)S(=O)c2ccccc2)cc1 (stereo not drawn)	-9%	-3.7%	6	-14%
CC1(C)CC(NC(=O)c2ccccn2)CC(C)(C)N1O	-2%	0.8%	3	12%
N#Cc1c(-c2ccccc2)nc(SCC(=O)N(c2ccccc2)c2ccccc2)[nH]c1=O	0%	?	-6	7%
Cc1cc(C)c(C)c(OCCCOc2cccc3cccnc23)c1	-2%	-3.5%	-10	37%
C[C@H](CO)N1C[C@H](C)[C@@H](CN(C)S(=O)(=O)c2cn(C)cn2)Oc2ccc(NC(=O)Cc3ccccc3)cc2C1=O	nt	2.1%	nt	14%
COCCc1nn2c(=O)cc(COC(=O)c3cc(OC)c(OC)c(OC)c3)nc2s1	-4%	0.0%	nt	-1%
Cc1ccc(C2C(/C=C3/SC(=S)NC3=O)=C(c3cccs3)Oc3ccccc32)cc1 (stereo not drawn)	?	5.5%	-2	0%
COc1cc2[nH]c(=O)n(CCCCCC(=O)NCCc3c[nH]c4ccccc34)c(=O)c2cc1OC	0%	-1.2%	2	3%
Nc1ccccc1-c1n[nH]c(=S)s1	-20%	?	2	15µM*
O=C(NCC(=O)N1CCN(Cc2ccccc2)CC1)c1ccc(Br)cc1	24%	3.2%	nt	1%
CN(C)N1C(N)=C(C#N)C(c2ccc(F)cc2)C2=C1CCCC2=O (stereo not drawn)	6%	-2.3%	nt	-14%
COc1ccccc1NC(=O)c1cc(C(=O)Nc2ccccc2OC)cc(N2C(=O)CCC2=O)c1	-1%	-0.2%	0	-1%
COc1ccc(NC(=O)c2cc(CC(C)C)nc3ccccc23)cc1	1%	-0.4%	nt	8%
CCOC(=O)[C@H]1[C@H]2COc3ccccc3[C@@H]2N2C(=O)c3cc(OC)c(OC)cc3NC(=O)[C@@]12C	nt	-4.4%	nt	-20%
Cc1ccccc1N(CC(=O)NCc1ccc2c(c1)OCO2)C(=O)CCC(=O)Nc1ccccn1	-4%	3.7%	1	-8%

Four entries out of the list, sorted by SMILES length, lowest first:
SMILES	miR-21 FLuc	Rango complex inh	GLA inh pH 4.5	Rango dissoc inh
Cc1cc(C)c(C)c(OCCCOc2cccc3cccnc23)c1	-2%	-3.5%	-10	37%
COCCNC(=O)CN(C(=O)CCC(=O)Nc1ccccn1)c1ccccc1F	5%	-3.4%	9	-13%
COCCc1nn2c(=O)cc(COC(=O)c3cc(OC)c(OC)c(OC)c3)nc2s1	-4%	0.0%	nt	-1%
C[C@H](CO)N1C[C@H](C)[C@@H](CN(C)S(=O)(=O)c2cn(C)cn2)Oc2ccc(NC(=O)Cc3ccccc3)cc2C1=O	nt	2.1%	nt	14%

New compounds follow:
SMILES	miR-21 FLuc	Rango complex inh	GLA inh pH 4.5	Rango dissoc inh
Cc1ccccc1OCCCCn1c(CO)nc2ccccc21	11%	3.4%	-5	1%
COc1ccccc1-c1nnc(SCC(=O)Nc2cc(C)on2)o1	-9%	-0.7%	-5	2%
Cn1c(=O)n(Cc2ccccc2F)c(=O)c2c1nc1n2CCCN1CCc1ccccc1	-4%	0.2%	0	-13%
Cc1cc(C)c(NC(=O)COC(=O)c2ccncc2)c(C)c1	nt	-0.1%	nt	0%
O=C1NC(=O)c2cc(NC(=O)C3CCCCC3)ccc21	-6%	-0.5%	-2	11%
Cc1nn(C)cc1/C=N/NC(=O)Cn1nnc(N)n1	0%	0.6%	-6	-10%
CN1CCN(C(=O)CCN2C(=O)S/C(=C/c3ccc(Cl)cc3)C2=O)CC1	0%	7.2%	3	-1%
Cc1ccc(NC(=O)CN2C(=O)CCSc3ccc(S(=O)(=O)N4CCCC4)cc32)cc1C	-5%&-4%	-1.4%	nt	0%
COc1ccc(N(CC(=O)NCc2cccnc2)S(=O)(=O)c2c(C)nn(C)c2C)cc1	-4%	-3.2%	-2	-6%
CN(C(=O)CSc1nc2ccccc2n1CCc1ccccc1)C1CCS(=O)(=O)C1 (stereo not drawn)	-8%	1.3%	-11	-1%
CCOC(=O)N1CCC(N2C(=O)c3ccccc3C2Nc2ccccc2C)CC1 (stereo not drawn)	-4%	2.0%	4	-11%
COCCNC(=O)/C(C#N)=C/c1c(N2CC(C)OC(C)C2)nc2ccccn2c1=O (stereo not drawn)	0%	?	-2	?
O=c1[nH]nc(CNc2ccc(OC(F)(F)F)cc2)c2ccccc12	0%	-0.9%	-7	32%
O=C(COC(=O)c1ccc(Cl)nc1)NC1CCCc2ccccc21 (stereo not drawn)	nt	-0.4%	nt	10%
Cc1nnc(NC(=O)NCN2C(=O)C3C4C=CC(C4)C3C2=O)s1 (stereo not drawn)	-1%	-0.1%	2	12%
CCCCn1c(N)c(N(Cc2ccccc2OC)C(=O)C2=COCCO2)c(=O)[nH]c1=O	nt	-3.9%	nt	-1%
CCOC(=O)c1cn2nc(N3CCCCC3)ccc2n1	0%	-1.8%	-3	-7%
Clc1ccc(-c2nnc3c4ccccc4nc(N4CCOCC4)n23)cc1Cl	-9%	5.1%	3	3%
CSc1nc2sc3c(c2c(=O)n1C)CCC3	-9%	2.9%	nt	1%
CCC(=O)c1cn(CC(=O)Nc2ccc(C)cc2C)c2ccccc12	3%	2.7%	nt	20%
Nc1cc(=O)[nH]c(SCC(=O)Nc2cc(Cl)cc(Cl)c2)n1	3%	-4.9%	9	0%
O=C(N/N=C1\SCC(=O)N1CCc1ccccc1)c1cccs1	2%	0.3%	-14	1%
Cc1ccc(-n2c(CNc3ccc(F)cc3)nnc2SCC(=O)NCc2ccco2)cc1	-2%	2.7%	-18	0%
O=[N+]([O-])c1ccc(CS(=O)(=O)c2ccc(Cl)cc2)cc1	3%	3.5%	nt	12%
CCOc1ccc(/C=C/C(=O)Nc2ccc3[nH]c(=O)[nH]c3c2)cc1	-9%	-4.1%	-8	-27%
Cn1c(SCC(=O)NCC2CCCO2)nnc1-c1cccc(NC(=O)c2ccccc2F)c1 (stereo not drawn)	-6%	0.2%	4	-1%
CCCN1C(=O)c2ccccc2NC1c1ccc(C)cc1 (stereo not drawn)	6%	3.1%	8	4%
O=C(CCN1C(=O)c2cccc3cccc(c23)C1=O)NCc1cccnc1	-7%	1.7%	1	-6%
O=C(COC(=O)/C=C/c1cccc(C(F)(F)F)c1)NC1CCS(=O)(=O)C1 (stereo not drawn)	nt	1.3%	nt	-3%
COc1cc(CNC2CCCCCCC2)cc(Cl)c1OC	4%	1.6%	nt	-6%
COCCn1c(=O)[nH]c2cc(C(=O)N3CCN(c4cccc(C(F)(F)F)c4)CC3)ccc2c1=O	3%	-0.7%	nt	8%
CCOC(=O)N1CCC(N(CCN(C)C)C(=S)Nc2ccc(OCC)cc2)CC1	-3%	nt	-4	nt
O=C(COc1ccccc1)N[C@@H]1c2ccccc2CC[C@@H]1OCc1ccccc1	nt	-1.7%	nt	35%
C=C(C)COc1cc2oc(=O)c(CC(=O)N3C[C@H]4C[C@@H](C3)c3cccc(=O)n3C4)c(C)c2cc1Cl	-9%	?	nt	?
OCCN1CCN(c2nc(N3CCCCC3)nc(N3CCCCC3)n2)CC1	-7%	1.3%	-4	0%
CCCn1nnc(NC(=O)COc2ccc(Cl)cc2)n1	-6%	0.0%	7	-2%
CC(=O)Nc1ccc(NC(=O)C(C)OC(=O)CNS(=O)(=O)/C=C/c2ccc(C)cc2)cc1 (stereo not drawn)	nt	4.5%	nt	3%
CCc1nnc(NC(=O)c2ccc(S(=O)(=O)N3CCCC3)cc2)s1	-1%	?	nt	-12%
COc1ccc(-c2nnnn2C(C)C)cc1	5%	2.2%	3	3%
CC(CCc1ccccc1)NC(=O)COC(=O)CC1CC2CCC1C2 (stereo not drawn)	0%	1.5%	-7	28%
CCOC(=O)c1c(NC(=O)Cn2nc([N+](=O)[O-])c(Br)c2C)sc2c1CCC(C)C2 (stereo not drawn)	2%	-1.8%	-18	0%
COC(=O)/C(=C\c1ccc([N+](=O)[O-])o1)NC(=O)c1ccccc1	-6%	-3.5%	-2	-20%
Cn1cc(C(=O)NCc2cccnc2)c(=O)c2cc(S(=O)(=O)N3CCCCCC3)ccc21	-1%	nt	-2	nt
CC(=O)Nc1cccc(OCC(=O)/C=C2\N(C)c3ccccc3C2(C)C)c1	14%	?	-13	3%

An excerpt; count on the stated rates, not on these rows.
